# Source: PubChem
# 2A firefly: lowers the firefly signal of an FMDV 2A StopGo reporter; HEK cells with a luciferase reporter of 2A StopGo recoding; Potency, µM (titrated, usually from 57.5 µM), for the others: top-dose signal change, negative = less light; actives 0.23% (n = 120,000); active = well fitted falling curve with a large enough effect; inconclusive = small, poorly fitted or top-dose-only effect; inactive = no such curve, though single readings can be large or run the other way; note: nearly all actives have a fitted effect of over 60% in size; overnight with compound
# 2A Renilla: FMDV 2A StopGo reporter, Renilla signal. HEK cells with a luciferase reporter of 2A StopGo recoding. Potency, µM (doses to about 57.5 µM), for the others: at the top dose signal change, negative = less light. actives 0.32% (n = 120,000); active means well fitted falling curve with a large enough effect; inconclusive means small, poorly fitted or top-dose-only effect; inactive means no such curve, though single readings can be large or run the other way; note: nearly all actives have a fitted effect of over 55% in size; overnight with compound
# * hit, by the source's call; ? = inconclusive; & = joins results of further samples; [ ] = remark or other dose. % is set by controls: 0 for no effect and ±100 for the full control effect; potency is the fitted concentration of half-maximal effect. An excerpt, so the mix of outcomes need not match the whole.
SMILES,2A firefly,2A Renilla
c1ccc2c(-c3ccn[nH]3)cccc2c1,0%,16%
O=C(Cn1c(=O)c2c(ncn2Cc2ccccc2)n(Cc2ccccc2)c1=O)Nc1ccccc1F,7%,-6%
CCc1cc(C(=O)NCCc2ccccc2OC)sc1C,65%[activator],11%
O=S(=O)(c1ccc(-c2csc(=Nc3ccc(F)cc3)n2CCCCCCO)cc1)N1CCCC1,?,?
O=C(COc1cc(O)c2c(=O)cc(-c3ccccc3)oc2c1)NCc1ccc(F)cc1,17%,4%
CC1CCC(NC(=O)c2[nH]c3ccccc3c2Cl)CC1 (centres undefined),0%,8%
CCOC(=O)c1[nH]c(C)c(CCC(=O)Nc2cc(Cl)ccc2C)c1C,-4%&-11%,-1%&-7%
CCC(NC(=O)Nc1ccc(Br)cc1)c1ccc(C(C)C)cc1 (centres undefined),?,?
COc1cc(NC(=O)CN(c2ccc(C)cc2)S(=O)(=O)c2cccc3nonc23)cc(OC)c1,6%,18%
CCOC(=O)c1ccccc1NC(=O)Nc1cn(CC(C)C)c(=O)c2ccccc12,-5%,-12%
CCN(CC)c1ccc(NC(=O)CSc2ncnc3ccccc23)cc1,3%,-12%
COc1cc(/C=C/c2nc(C#N)c(N3CCCCC3)o2)cc(OC)c1OC,15%,7%
COc1ccc(NC(=O)C2CCCN(c3ncnc4onc(C)c34)C2)cc1OC (centres undefined),-20%,-23%
CSc1cccc(NC(=O)c2ccc3c(c2)c(C)c(C)n3Cc2ccc(F)cc2)c1,22%,14%
CC12CNCC(C)(CNC1)C2=O,-4%,1%
O=C(COC(=O)CCC1CCCC1)Nc1ccc2c(c1)OCO2,11%,-10%
Cc1nn(-c2ccccc2)c2nc(C3CC3)cc(C(=O)NCc3ccccc3Cl)c12,-14%,16%
CCOC(=O)c1c(C)[nH]c(C)c1S(=O)(=O)N(C)CC(=O)NCc1ccc(Cl)cc1,-10%,45%[activator]
CCCCSCCCNC(=O)CS(=O)Cc1nc(-c2cccc(C)c2)oc1C (centres undefined),0%,-4%
Cc1ccc(NC(=O)Cn2c(=O)n(Cc3nc(C)no3)c(=O)c3cc4c(cc32)OCO4)c(C)c1,-12%,1%
COc1ccc(-c2nn(C)c(=O)c3ccccc23)cc1NC(=O)c1ccc(Cl)cc1,5%,-4%
COc1ccc(C2C3=C(CCCC3=O)Nc3ccccc3N2C(=O)c2ccccc2)cc1OC (centres undefined),0%,8%
CCN1CCN(Cc2nc3c(c(=O)n(C)c(=O)n3C)n2CCCO)CC1,-6%,-8%
O=C(Nc1ccc(SC(F)F)cc1)c1cc(-c2ccc3c(c2)OCCO3)on1,-27%,12%
O=c1c2ccccc2sc2ccc(Br)cc12,41%[activator],18%

# Following part:
SMILES,2A firefly,2A Renilla
COc1ccc(-c2noc(CSc3nnc(C)n3-c3ccc(C)cc3)n2)cc1OC,-9%&-19%,0%&-17%
Cc1ccccc1OCC(=O)NCc1ccc(CS(N)(=O)=O)cc1,23%,-2%
O=S(CCN1CCN(Cc2c(F)cccc2Cl)CC1)c1ccccc1 (centres undefined),-11%,0%
O=S(=O)(N1CC=C(c2c[nH]c3ccccc23)CC1)N1CCCCC1,30%[activator],4%
COC(=O)C(C)N1C(=O)S/C(=C/c2ccc(C)o2)C1=O (centres undefined),18%,-16%
Cc1cc2oc(C(=O)N(Cc3ccc(Cl)cc3)Cc3ccco3)c(C)c2cc1Cl,0%,-5%
C[C@]12C=CC(=O)C=C1CC[C@H]1[C@@H]3C[C@@H](O)[C@](O)(C(=O)CO)[C@@]3(C)C[C@H](O)[C@@]12F,3%,8%
Cc1oc(-c2nc(C#N)c(N3CCOCC3)o2)cc1S(=O)(=O)N1CCCCC1,-7%,-7%
COc1ccc(NC(=O)CSc2nc(-c3ccco3)cc(C(F)(F)F)n2)cc1Cl,-8%,-9%
O=[N+]([O-])c1cc(S(=O)(=O)Nc2cccc(Cl)c2)ccc1N/N=C/c1ccc(F)cc1,25%,138%[activator]
COc1cc(NC(=O)Cn2cc(C#N)c3ccccc32)cc(OC)c1,21%,11%
Cc1ccc(-c2cc(C(=O)Nc3nnc(C4CC4)s3)c3ccccc3n2)o1,14%,-12%
CCC(C)NC(=O)C(=O)NCCc1c[nH]c2ccccc12 (centres undefined),12%,2%
CCOc1cc(C(=O)Nc2ncc(C)s2)ccc1OC,278%[activator],52%[activator]
CN(Cc1ccccc1)c1nc2c(c(=O)n(C)c(=O)n2C)n1CC(O)COc1ccccc1 (centres undefined),-22%,-14%
COc1ccc2nc(-n3ncc4c3NC(=O)CC4c3ccc(O)c(OC)c3)sc2c1 (centres undefined),42%[activator],45%[activator]
O=C(Cc1noc(C(=O)NCC2CC2)n1)Nc1cccc2ncccc12,2%,-9%
O=C(Nc1ccccc1C1CC1)C1CC1,18%,-9%
CCCOC(=O)C(N)c1ccccc1 (centres undefined),9%,5%
CCc1ccc2oc(C(=O)Nc3ccc4nsnc4c3)cc(=O)c2c1,3%,-1%
CCc1ccc(-n2nc(C)c3c2NC(=O)CC3C(=O)c2ccc(CC)s2)cc1 (centres undefined),-30%,-22%
COc1ccc(C(=O)Nc2nnc(S(=O)(=O)N(CC(C)C)c3ccccc3)s2)cc1,29%,?
COCCNC(=O)c1[nH]c2cc(C)ccc2c1Sc1ccc(Cl)cc1,4%,28%
Cc1cnc(NC(=O)CCc2c(C)[nH]c(=O)[nH]c2=O)s1,24%,-4%
Cc1ccc(Cl)cc1NC(=O)CN(C)S(=O)(=O)c1ccc2c(c1)n(C)c(=O)c(=O)n2C,2%,1%

# Compound profiles, from the list above. Screens in order: 2A firefly	2A Renilla
# c1ccc2c(-c3ccn[nH]3)cccc2c1 reads 0%	16%
# Cc1nn(-c2ccccc2)c2nc(C3CC3)cc(C(=O)NCc3ccccc3Cl)c12 reads -14%	16%

# Later entries:
SMILES,2A firefly,2A Renilla
Cc1oc(-c2ccccc2)nc1C(=O)N(C)Cc1ccc(C(N)=O)cc1,21%,8%
Cc1ccccc1OCC(=O)NCC(c1ccc(Cl)cc1)N1CCOCC1 (centres undefined),?,?
Cc1ccc(-c2c(NC(=O)c3ccco3)oc3ccccc3c2=O)cc1,85%[activator],7%
O=C(c1ccc2c(c1)N(Cc1cccc(Cl)c1)C(=O)c1ccccc1S2(=O)=O)N1CCN(c2cccc(C(F)(F)F)c2)CC1,-19%,-7%
O=C1/C(=C/c2cccc(O)c2)C(c2ccccc2)Oc2ccccc21 (centres undefined),?,?
Cc1cc(SCC(=O)Nc2ccc(Cl)cc2)nc2ccccc12,20%&-8%,8%&20%
O=C(Nc1cccc(Cl)c1)C1CCCN(c2nn3cc(-c4ccc(F)cc4)nc3s2)C1 (centres undefined),?,?
CCOc1ccc(NC(=O)C2CCCN(c3nn4cc(-c5ccc(OC)cc5)nc4s3)C2)cc1 (centres undefined),13%,-4%
O=C(O)c1ccc(CNCC(O)c2ccccc2)cc1 (centres undefined),-2%,-4%
COc1ccc(Cn2c(=O)c3oc4ccccc4c3n(Cc3ccccc3)c2=O)cc1,-9%,-8%
CCOc1ccccc1NC(=O)CC1C(=O)NCCN1C(=O)c1ccc(F)cc1 (centres undefined),6%,3%
NC(=O)CSc1nc2ccc(NC(=O)COc3ccccc3)cc2s1,0%,10%
COCCCNC(=O)c1nc(Cc2c[nH]c3ccccc23)no1,16%,1%
CC(C)(C)c1ccc(NC(=O)CCc2ncc(-c3ccccc3F)o2)cc1,-11%,-15%
Cc1ccn2c(Nc3ccccc3C)c(-c3ccccn3)nc2c1,?,?
Fc1ccc(-c2cnc(COc3ccc(-c4nnco4)cc3)o2)cc1,13%,3%
Cc1cc(NC(=O)Cn2c(=O)c3c(ncn3CC(C)C)n(Cc3ccccc3)c2=O)no1,-1%,7%
CCOC(=O)C1CCN(CCC(=O)Nc2cc(OC)cc(OC)c2)CC1,-6%,-7%
COc1ccc(CNC(=O)c2cc3cccc4c3n2CC(C)S4)c(OC)c1 (centres undefined),36%[activator],38%[activator]
N#C/C(=C/c1cccc(/C=C(/C#N)c2nc3ccccc3[nH]2)c1)c1nc2ccccc2[nH]1,117%[activator],29%
Cc1cc(Oc2cc(C#N)c(C#N)cc2Oc2cc(C)c(Cl)c(C)c2)cc(C)c1Cl,13%,-2%
CCCCN(CC)CCNC(=O)Cn1c(=O)c2cccn2c2cccnc21,-2%,-17%
CCc1ccc(Nc2nc3c(S(=O)(=O)c4ccc(C)cc4)nnn3c3ccsc23)cc1,-29%,-16%
Cc1ccccc1-c1nc(CS(=O)CC(=O)NCCN2CCN(Cc3ccccc3)CC2)c(C)o1 (centres undefined),7%,1%
O=C(C1CCC(CNS(=O)(=O)c2ccc(Br)s2)CC1)N1CCN(c2ccc(F)cc2)CC1 (centres undefined),?,6.3µM*

# The list goes on.
SMILES,2A firefly,2A Renilla
COc1cccc(N2CCN(C(=O)c3cc4c(=O)n(Cc5ccccc5)ccc4nc3C)CC2)c1,-7%,-15%
Cc1[nH]c2ccccc2c1C(=O)CN1CCN(C)CC1,-5%,-7%
CCOC(=O)c1cccc(NC(=O)Cn2cnc3nc4c(cc3c2=O)CCCC4)c1,-19%,7%
O=C(/C=C/c1ccccc1)NC(=S)NNC(=O)c1ccccc1,110%[activator],15%
COc1ccc(C2=NC(C(F)(F)F)(C(F)(F)F)N=C(N(C)C)O2)cc1,21%,5%
Cc1ccc2nc(N(Cc3cccnc3)C(=O)CCOc3ccccc3)sc2c1,-5%,1%
Cc1ccc(Nc2c(-c3ccncc3)nc3ccc(C)cn23)cc1,-15%,-3%
CCc1ccc(-n2nc(C)c3c(C)cc(=O)n(CC(=O)Nc4ccc(C)c(F)c4)c32)cc1,-6%,-8%
COCCCNc1nc2c(c(=O)n(Cc3cccc(Br)c3)c(=O)n2C)n1C,?,?
COC(=O)C1=C(N)Oc2cc(C)n(C)c(=O)c2C1c1cccc(OC)c1 (centres undefined),10%,6%
N#Cc1nc(-c2ccc(S(=O)(=O)N3CCCCC3)cc2)oc1NCc1ccc2c(c1)OCO2,-3%,8%
Cc1ccc2c(CNCC(C)c3ccccc3)c(C(=O)O)n(Cc3ccccc3C)c2c1 (centres undefined),-8%,-3%
Cc1noc(-c2cc3cc(Br)ccc3o2)n1,0%,-9%[1.06 µM]
Cc1ccc(CNC(=O)c2ccc(Nc3cc(-c4ccc(F)cc4)ncn3)cc2)o1,27%,3%
CCN(CCO)C(=S)Nc1cccc(C)c1,-1%,7%
COC(=O)c1ccc(NC(=O)CCCc2cccs2)cc1,191%[activator],20%
CCOC(=O)c1cccc(NC(=O)CCn2nc(C)c3c(C)n(-c4ccccc4)nc3c2=O)c1,-15%,-4%
COc1ccc(NS(=O)(=O)c2cccc(C(=O)N3c4ccccc4CC3C)c2)cc1 (centres undefined),?,98%[activator]
COC(=O)CCCNC(=O)CN(C)Cc1ccsc1,0%,-13%
COCCNC(=O)c1cccc2c(=O)c(C)c(-c3ccccc3)oc12,7%,17%
CCCCCn1nc(C(=O)Nc2nc(-c3ccc(OC)cc3)c(C)s2)c2ccccc2c1=O,-5%,-9%
Cc1ccc(Cl)cc1NC(=O)c1oc2ccc(S(=O)(=O)N(C)C3CCCCC3)cc2c1C,-14%,-9%
CN(C)C(=O)/C=C/c1ccc(-c2ccccc2F)o1,229%[activator],35%[activator]
O=C(CC1CC2CCC1C2)Nc1ccc(Br)cc1Cl (centres undefined),149%[activator],14%
O=C(Cc1c[nH]c2ccccc12)NC1(c2ccccc2)CCC1,2%,15%
O=C(CSc1ccccn1)c1ccc2c(c1)OCCO2,162%[activator],54%[activator]
CCOCCOC(=O)COc1ccc2c(=O)c(Oc3ccccc3Cl)coc2c1,-8%,-8%
C[C@H](O)[C@@H]1CN2CCc3ccc(-c4ccc5c(c4)OCO5)cc3[C@@H]2C[C@@H]1N(C)C(=O)Nc1ccccc1,18%,5%
CCCCCCCCCCCCc1ccc(-c2ccc(CC)cn2)cc1,-9%,-7%[1.06 µM]

# In the list so far, twelve contain an NH in an aromatic ring.
SMILES,2A firefly,2A Renilla
c1ccc2c(-c3ccn[nH]3)cccc2c1,0%,16%
CC1CCC(NC(=O)c2[nH]c3ccccc3c2Cl)CC1 (centres undefined),0%,8%
CCOC(=O)c1[nH]c(C)c(CCC(=O)Nc2cc(Cl)ccc2C)c1C,-4%&-11%,-1%&-7%
CCOC(=O)c1c(C)[nH]c(C)c1S(=O)(=O)N(C)CC(=O)NCc1ccc(Cl)cc1,-10%,45%[activator]
O=S(=O)(N1CC=C(c2c[nH]c3ccccc23)CC1)N1CCCCC1,30%[activator],4%
CCC(C)NC(=O)C(=O)NCCc1c[nH]c2ccccc12 (centres undefined),12%,2%
COCCNC(=O)c1[nH]c2cc(C)ccc2c1Sc1ccc(Cl)cc1,4%,28%
Cc1cnc(NC(=O)CCc2c(C)[nH]c(=O)[nH]c2=O)s1,24%,-4%
COCCCNC(=O)c1nc(Cc2c[nH]c3ccccc23)no1,16%,1%
N#C/C(=C/c1cccc(/C=C(/C#N)c2nc3ccccc3[nH]2)c1)c1nc2ccccc2[nH]1,117%[activator],29%
Cc1[nH]c2ccccc2c1C(=O)CN1CCN(C)CC1,-5%,-7%
O=C(Cc1c[nH]c2ccccc12)NC1(c2ccccc2)CCC1,2%,15%
